From PubChem
CSC inhib: cancer stem cell viability inhibitors, primary screen, luminescence. 300,000 tested, 1.1% active. cancer stem cell-like cells viability. AID 2717, 2010. inhibition, % at 7.5 µM;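 active = mean at 75% or more and at least half the replicates too; inconclusive = mean and replicates disagree; tested in HMLE shEcad cells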;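 also: 0% = median of negative and 100% = median of positive control wells; the first replicate is given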
MT1-MMP act inh: blockers of MT1-MMP proenzyme processing, primary screen, HT1080 RFP-PRO-GFP cells, GFP/RFP fluorescence. GFP/RFP ratio fluorescence, overnight; percent of plate control window, DMSO zero. AID 651647, 2012. GFP/RFP ratio change, % at 20 µM. Matrix metalloproteinase-14 (Homo sapiens), P50281. 360,000 tested, 0.061% active;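 active = GFP/RFP ratio change of at least 30% with cell ATP level not reduced by more than half and red fluorescence within 50% of control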; also: strong numbers were not always called active
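Material – HT1080 RFP-PRO-GFP cells · Control set – DMSO wells and RFP-L50D-GFP cells · Incubation – overnight cell settling, then overnight compound exposure, 37 °C, 5% CO2 · Compound dosing – single-point 20 µM compound, 1% DMSO · Read-out – GFP/RFP fluorescence ratio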
PABP FP inh: PABP poly(A) RNA binding inhibitors, primary screen, biochemical, fluorescence polarization, uHTS. 290,000 tested, 1% active. Polyadenylate-binding protein 1 (Homo sapiens), P11940. inhibition, % at 35 µM;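 active = 50% or more with normal probe brightness, or confirmed in later tests; inconclusive = above 50% with abnormal brightness, or retests that disagree; inactive = below 50% or failed in later tests; about a fifth of its hits are not listed in these tables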;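 also: calls also rest on retests at 20 µM and on dose response follow-up; controls were probe without protein and protein plus probe with vehicle; some compounds called inactive have numbers as strong as hits; many hits fall short of the cut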
Rce1 inh: yeast Rce1p protease inhibitors, primary screen, biochemical, fluorescence, cell-free homogeneous. AID 2563, 2010. yeast membranes, quenched prenylated peptide cleavage fluorescence. 290,000 tested, 0.27% active. calls only. CAAX prenyl protease 2 (Saccharomyces cerevisiae (strain ATCC 204508 / S288c)), Q03530;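 active = fall in fluorescence gain of 50% or more versus controls, with final raw signal at or below 3038400; inconclusive = same 50% fall but final raw signal above 3038400; inactive = fall in fluorescence gain under 50%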;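 also: plate controls were neutral control wells for no effect and wells lacking membranes for full effect; tested at 10 µM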
Target sequence (Q03530 whole entry, looked up): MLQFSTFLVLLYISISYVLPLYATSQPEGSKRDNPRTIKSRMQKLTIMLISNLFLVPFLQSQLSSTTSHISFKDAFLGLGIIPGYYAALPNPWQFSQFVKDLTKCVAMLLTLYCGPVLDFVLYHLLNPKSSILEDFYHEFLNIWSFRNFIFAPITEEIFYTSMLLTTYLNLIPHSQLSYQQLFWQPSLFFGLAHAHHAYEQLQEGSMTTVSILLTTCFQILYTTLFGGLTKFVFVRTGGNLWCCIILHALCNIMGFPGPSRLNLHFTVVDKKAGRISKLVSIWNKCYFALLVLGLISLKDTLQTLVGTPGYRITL
eIF4H FP inh: human eIF4H binding inhibitors, primary screen, translation initiation inhibitor project, biochemical, uHTS, fluorescence polarization. Eukaryotic translation initiation factor 4H (Homo sapiens), Q15056. eIF4H fluorescence polarization binding assay. inhibition, % at 35 µM. 290,000 tested, 0.94% active. AID 2012, 2009;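 active = 50% or more with normal probe brightness, or confirmed in later tests; inconclusive = above 50% with abnormal brightness, or retests that disagree; inactive = below 50% or failed in later tests; about a fifth of its hits are not listed in these tables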;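 also: calls also rest on retests at 20 µM and on dose response follow-up; 0% = protein and probe with vehicle and 100% = probe without protein; strong numbers were not always called active; many hits fall short of the cut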
UUG fidelity: modulators of yeast start codon fidelity, primary screen, whole organism, S. cerevisiae, single point, plate reader. 350,000 tested, 0.13% active. S. cerevisiae UUG-firefly luciferase reporter, luminescence/redox ratio. activity score, % at 18.7 µM;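 active = replicate mean at a twofold rise or more, about +100% in these data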;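 also: firefly luciferase made from a UUG start codon reports start codon fidelity; reporter light over untreated wells divided by growth signal over untreated wells; some hits fall short of that in this replicate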
Env fusion inh: inhibitors of HIV-1 Env-driven cell-cell fusion, primary screen, HeLa-JRFL effector, CEM21 target cells, luciferase. 360,000 tested, 1.1% active. inhibition, % at 12.3 µM. AID 651610, 2012;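 active = mean replicate inhibition score of at least 50 and every replicate individually at or above 50; inconclusive = only one of the two criteria met; inactive = mean below 50 and not all replicates reaching 50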;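 also: 0% = plate neutral controls and 100% = maraviroc near 300 nM; one replicate is shown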
MT1-MMP act inh RFP: recorded beside MT1-MMP act inh, whose call it bears; RFP signal change, %; measured here: RFP expression control read;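 0 = vehicle wells; hits needed this value within 50% of zero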
Numbers without * were called inactive; i = inactive; ? = inconclusive; / = not tested or not shown.

SMILES	CSC inhib	MT1-MMP act inh	MT1-MMP act inh RFP	PABP FP inh	Rce1 inh	eIF4H FP inh	UUG fidelity	Env fusion inh
COc1ccc(CN2CCNC(=O)C2CC(=O)NC2Cc3ccccc3C2)c(OC)c1 (centres undefined)	-12	-3	2	-1	/	-1	6	4
COc1cc(C)ccc1OC(C)C(=O)Nc1ccc(N2CCCCC2)cc1 (centres undefined)	-4	4	2	/	/	/	-9	6
CCN(CC(=O)Nc1ccccc1C(F)(F)F)C(=O)c1ccc(N2CCCC2=O)cc1	5	0	1	/	/	/	1	/
CC1(C(=O)NS(=O)(=O)c2ccccc2Cl)CCN1C(=O)c1cccc(F)c1 (centres undefined)	/	-2	4	/	/	/	-12	10
C#CCOCCOCCOCCNc1nc(N2CCN(C(=O)CCCCCCCCCCNC(=O)[C@H]([C@@H](C)CC)n3cc(CCCCCN)nn3)CC2)nc(N2CCN(C(=O)CCCCCCCCCCNC(=O)[C@@H]([C@H](C)O)n3cc(C)nn3)CC2)n1	109*	17	-2	/	/	/	-4	/
CC1(C)Cc2ccccc2-c2nc(-c3ccccc3)oc(=O)c21	30	-3	-9	4	i	5	-22	/
C/C(=C/CCC(C)(O)C1CC[C@@]2(C)[C@@H]3CC=C4[C@@H](CC[C@H](O[C@H]5O[C@@H](CO)[C@H](O)[C@@H](O)[C@@H]5O)C4(C)C)[C@]3(C)C(=O)C[C@]12C)CO[C@@H]1O[C@H](CO)[C@@H](O)[C@H](O)[C@H]1O (some centres undefined)	/	-1	-1	/	/	/	-8	88*
CCOC(=O)C1CCCN(C(=O)Cn2nc(C)n3nc(-c4ccccc4)cc3c2=O)C1 (centres undefined)	-9	-1	0	9	i	-6	-5	-2
COc1ccc2nc(Nc3nc4cc5c(cc4s3)OCO5)sc2c1	-2	6	3	8	i	19	/	-1
c1ccc(-c2nnc(-c3ccccc3)c(-c3c[nH]c4ccccc34)n2)cc1	22	-3	0	10	i	1	-18	/
COc1ccc2[nH]c(=O)c(CN(CCO)C(=O)NCc3ccccc3)cc2c1	-10	8	4	2	i	-2	-15	/
COc1cccc(CN(C(=O)c2cnccn2)C(C(=O)NC2CCCCC2)c2cc(OC)c(OC)c(OC)c2)c1 (centres undefined)	-7	-1	2	-3	i	6	15	-7
O=C(COn1nnc2ccc(Cl)cc21)Nc1ccc(F)cc1	-6	4	5	-11	i	1	-11	5
O=C(NNC(=S)Nc1ccc(F)cc1)C1CC1c1ccc(Cl)cc1 (centres undefined)	-11	4	2	-3	i	18	/	5
Cc1ccc([C@H]2C[C@H](O)[C@@H](n3cc(COC(=O)c4ccccc4)nn3)CN2Cc2cccs2)cc1	/	-1	-2	/	/	/	0	2

Laid out differently: two of the compounds above
Compound,CSC inhib,MT1-MMP act inh,MT1-MMP act inh RFP,PABP FP inh,Rce1 inh,eIF4H FP inh,UUG fidelity,Env fusion inh
Cc1ccc([C@H]2C[C@H](O)[C@@H](n3cc(COC(=O)c4ccccc4)nn3)CN2Cc2cccs2)cc1,/,-1,-2,/,/,/,0,2
CC1(C)Cc2ccccc2-c2nc(-c3ccccc3)oc(=O)c21,30,-3,-9,4,i,5,-22,/

New compounds follow:
SMILES	CSC inhib	MT1-MMP act inh	MT1-MMP act inh RFP	PABP FP inh	Rce1 inh	eIF4H FP inh	UUG fidelity	Env fusion inh
Cc1[nH]c(=O)nc(SCc2ccc(Cl)c(Cl)c2)c1C#N	2	-5	-4	25	i	1	-14	2
CSc1ncc(Cl)c(C(=O)Nc2nnc(SC)s2)n1	/	3	0	-2	i	4	-26	/
CC1CC(C#N)N(N(C)C)C1=C(C#N)C#N (centres undefined)	-11	-1	2	9	i	-1	/	8
Nc1nc(-c2ccc([N+](=O)[O-])cc2)c(C(=O)Nc2ccc(Cl)cc2)s1	-18	6	3	12	i	3	-15	6
COc1ccc(NC(=O)c2ccccc2NC(=O)C2CC=CCC2C(=O)O)cc1 (centres undefined)	-8	-1	2	-4	i	-5	3	-12
O=C1CCC(C(=O)OCc2ccccc2)N1 (centres undefined)	-6	10	7	-3	i	6	-6	/
CCN(c1ccccc1)c1ncnc2c1cnn2-c1ccccc1	54	-1	-3	-6	i	-15	-2	-32
CCn1c2c(c3cc(Br)ccc31)CCC/C2=N\O	-1	-5	1	0	i	-13	/	/
O=C(CN(C(=O)c1ccccc1Cl)N1C(=O)C2C3C=CC(C3)C2C1=O)c1cccs1 (centres undefined)	-12	-1	-1	-10	i	2	/	21
COc1cc(CN2CCN(c3ccccc3C)CC2)cc([N+](=O)[O-])c1O	22	8	3	-2	i	8	-13	6
COc1cccc(CNn2cnnc2)c1OCc1ccc(F)cc1	/	-3	2	-13	i	-10	-52	-54
O=C1CC(c2c(F)cccc2Cl)C2=C(COC2=O)N1 (centres undefined)	/	3	7	-2	i	-18	/	/
CCCCc1cc(=O)oc2cc(C)cc(OCc3nn[nH]n3)c12	-11	0	3	17	i	-8	-27	/
O=C(CC[C@H]1O[C@@H](n2ccc(=O)[nH]c2=O)[C@H](O)[C@@H]1O)NCCCc1ccccc1	/	2	2	/	/	/	-7	10
COc1ccc(-c2nc(SCC(=O)Nc3c(F)cccc3F)n[nH]2)cc1	-12	-3	-8	/	i	/	/	/
CC(C)C(=O)Nc1cc(=O)[nH]c2ncnn12	2	3	7	-2	i	-3	6	-108
N=C1/C(=C/c2coc3ccccc3c2=O)C(=O)N=C2SC(c3ccco3)=NN12	15	-66	2	?	i	?	-5	/
O=C(NCCc1ccccc1)c1ccc(Cl)nc1	-11	-3	1	-6	i	-5	-16	-50
Cc1occc1C(=O)NNC(=O)C1CC1	-3	0	4	-4	i	-7	0	10
NC(=O)Cn1cc(/C=N\NS(=O)(=O)c2ccccc2)c2ccccc21	8	3	3	-2	i	-4	-7	1
COc1ccccc1N1CCN(C(=O)C2CC=CCC2C(=O)O)CC1 (centres undefined)	-8	-1	6	1	i	-1	-16	/
O=S(=O)(NN=C1CCCCCCC1)c1ccccc1	/	1	0	/	/	/	-10	?
Cc1ccc(C)c(CC(=O)N2CCCC(c3cc(C(=O)NCc4ccccc4)no3)C2)c1 (centres undefined)	/	0	-6	/	/	/	-3	5
Cc1ccc(OC(C)C(=O)Nc2ncc(Cl)cc2Cl)c([N+](=O)[O-])n1 (centres undefined)	-7	3	-3	/	/	/	-12	/
COc1ccccc1N1CCN(S(=O)(=O)CCNC(=O)Cc2ccc(F)cc2)CC1	-6	3	-7	/	i	/	-5	6
CCOc1ccccc1N(C)C(=O)CCS(=O)(=O)c1ccc2c(c1)NC(=O)C(C)S2 (centres undefined)	-3	1	-2	10	i	7	11	10
O=C1c2ccccc2C(=O)N1CCC#Cc1ccc2cc(CCCO)oc(=O)c2c1	/	4	0	/	/	/	-14	13
CCOc1cc(C(=O)Nc2ccc(S(=O)(=O)Nc3cnc4ccccc4n3)cc2)cc(OCC)c1OCC	3	10	-3	/	/	/	/	7
COc1cc(C)c(CN2CCC(n3nccc3NC(=O)C3CCOC3)CC2)cc1C (centres undefined)	1	3	5	11	i	-2	-6	-3
O=C(NCc1cccnc1)c1cccc(Cl)c1	-8	-1	4	0	i	0	-19	/
CC(C)C(C(=O)NCc1ccco1)N(C(=O)CNS(=O)(=O)c1ccc(Cl)cc1)C1CCCC1 (centres undefined)	-7	4	-7	1	i	-7	4	/
CN(C)CC(=O)N1c2ccccc2Sc2ccc(Cl)cc21	/	-4	-1	0	i	5	/	14
COc1cccc(N2CCN(C(=O)c3cc(-c4ccc(F)cc4)[nH]c3C)CC2)c1	10	0	-7	-2	i	7	-2	17
O=C(Cn1cncn1)NCc1ccccc1Br	-8	0	2	-11	i	-6	-11	7
Cc1ccccc1NC(=O)CN(C)S(=O)(=O)c1cccc2cccnc12	-16	1	6	-5	i	1	-16	-12
O=C(CS(=O)CC(=O)Nc1cccc2c1CCCC2)Nc1ccc(F)cc1 (centres undefined)	-7	0	-7	1	i	7	2	4
O=C1NN(c2ccccc2)C(=O)/C1=C/c1ccc(-c2ccc(Cl)c(C(=O)O)c2)o1	/	-6	7	4	i	13	/	10
Cc1ccccc1OCC(=O)Nc1cc(S(=O)(=O)N2CCCCC2)ccc1N1CCN(C)CC1	-3	0	-1	-7	/	-2	/	-4
Cn1cccc1CC(=O)N/N=C/c1ccc(C(C)(C)C)cc1	18	5	6	-5	i	0	/	-1
Cc1ccc(S(=O)(=O)NCc2ccc(C(=O)N3CCc4ccccc4C3)cc2)cc1	28	1	-7	-4	i	-5	/	24
CCCN(C(=O)C1CSC2(C)CCC(=O)N12)c1c(N)n(Cc2ccccc2)c(=O)[nH]c1=O (centres undefined)	-14	4	7	/	i	/	/	2
COc1cc(C)ccc1OCCOCCOc1cc(C)c(C)cc1Br	5	-3	3	-3	i	-2	77	6
c1cc(CNCCNCc2ccncc2)ccn1	/	-4	0	/	/	/	-4	-3
Cc1noc(C)c1CSc1nc2cc(S(=O)(=O)N3CCOCC3)ccc2o1	-6	0	0	11	i	3	12	/
CCN1CCN(Cc2ccc(NC(=O)c3cc(NC(=O)c4cncc(-c5cccs5)c4)cc(OC)c3)cc2C(F)(F)F)CC1	124*	3	3	-31	i	-25	6	-29
O=C(N/N=C/c1ccc([N+](=O)[O-])cc1)c1cc(C2CC2)nc2ccccc12	43	-1	-6	3	i	-1	-11	-1
COc1ccc(NC(=O)NNC(=O)C(C)Oc2ccc3ccccc3c2)cc1OC (centres undefined)	-13	0	-2	2	i	1	2	-2
Cc1nn(-c2ccccc2)c2c1C(c1ccc(Br)s1)C(C#N)=C(N)O2 (centres undefined)	/	-4	6	13	/	10	/	/
CC(C)CCNC(=O)CN(Cc1ccc(F)cc1)C(=O)CCC(=O)Nc1ccccn1	28	0	2	6	i	-14	2	-1
CC(c1ccccc1)n1cc(C(=O)NCCCn2ccnc2)nn1 (centres undefined)	51	-4	-4	10	i	0	-1	-27
CCOC(=O)C1(Cc2cccc(F)c2)CCN(CCCn2cccn2)CC1	6	2	-1	-2	i	-8	/	6
CC(C(=O)NCCC1=CCCCC1)N1C(=O)c2ccccc2C1=O (centres undefined)	-21	7	5	4	i	1	-8	13
COc1cccc(CNCc2ccccn2)c1OC	-8	3	2	2	i	-1	-5	-30
CCOC(=O)N1CCN(C(=O)c2ccc3c(c2)N(Cc2ccccc2)CCS3)CC1	17	-3	-13	-1	i	-4	14	2
Cc1nc(Sc2ccc(Br)cc2)c(C#N)c(C)c1[N+](=O)[O-]	83*	-6	-13	-17	/	-2	-2	-74
CC(NC(=O)CCCN1C(=O)c2ccccc2C1=O)c1ccc2c(c1)CCCC2 (centres undefined)	12	4	5	-7	i	-1	-15	/
Cc1cccc(NC(=O)CSCC(=O)N(C)CC(=O)Nc2cccc(F)c2)c1	-6	4	5	/	i	/	-5	-4
Cc1ccc(C)c(S(=O)(=O)N2CCN(CC(=O)NC(C)c3ccccc3)CC2)c1 (centres undefined)	/	-3	-2	/	/	/	11	-4
O=C(CSc1ccccc1)N1CCC(N2CCC(C(=O)N3CCCC3)CC2)CC1	6	4	4	6	i	-2	/	7
CCN(CC)S(=O)(=O)c1cccc(C(=O)N/N=C(\C)c2ccc(O)cc2O)c1	/	-84	-10	-24	i	-4	/	22
